# AID504770 – growth inhibition of E. coli YBA685, primary screen, V. cholerae RctB inhibitors | 130,000 compounds, 0.27% hits | E. coli YBA685 rctB-dependent plasmid, OD600 growth, 3 h; stronger effect = lower value | AID 504770, 2011 | z-score (test concentration not listed);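 active means z-score under -2 on both plates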;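 further: wells of about 30 µL received 100 nL stock; score is relative to mean and SD of the test wells; the first replicate is given; strong numbers were not always called active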
# Ba CapD inh – Bacillus anthracis CapD inhibitors, primary screen, biochemical, fluorescence intensity. CapD gamma-glutamyltranspeptidase (Bacillus anthracis Ames Ancestor). purified CapD enzyme, fluorescence intensity read-out; stronger effect = lower value; some hits fall short of the stated cut. z-score (test concentration not listed). 140,000 compounds, 0.23% hits. AID 492967, 2010;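 active means z-score under -4 in either of two replicates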;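 further: stock transfer was 100 nL into about 40 µL; score is relative to mean and spread of the plate; one replicate is shown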
# * marks the source's active call; other numbers are inactive results; / = no result given; & = joins results of further samples.
SMILES,AID504770,Ba CapD inh
N#Cc1cccnc1NNC(=O)c1ccccc1C(=O)O,0,0.64
O=c1[nH]nc(SCc2cccc3nsnc23)n1-c1ccccc1,-0.75,-1.5
COc1ccc(CCNC2CC(=O)N(C)C2=O)cc1OC (configuration not stated),-0.4,/
C/C(=N\OCc1nc2c3c4c(sc3ncn2n1)CCCC4)c1cccs1,0.1,0.23
Cc1cc(N2CCc3ccccc32)n2ncnc2n1,-0.6,-4.7*
O=C(Cn1nnc(-c2ccccc2)n1)OCc1ccccc1,-0.3,/
O=C(CCC(=O)N(C1CC1)C1CCN(Cc2ccccc2)CC1)NCC1CCCO1 (configuration not stated),/,-0.12
COc1ccc2c(c1)C(SCC(=O)NC1CC1)CC(C)(C)O2 (configuration not stated),0.95,0.39
COc1cc(C(CC(=O)O)CC(=O)N2CCC(n3cccc3)CC2)cc(OC)c1OC (configuration not stated),1.6,0.29
CC(OC(=O)C1=NNC(=O)CC1)C(=O)Nc1nc(-c2ccccc2)cs1 (configuration not stated),-0.1,/

# Entries of single compounds from above. Order of screens: AID504770, Ba CapD inh
# `O=C(CCC(=O)N(C1CC1)C1CCN(Cc2ccccc2)CC1)NCC1CCCO1` (configuration not stated) as listed: /, -0.12
# `O=c1[nH]nc(SCc2cccc3nsnc23)n1-c1ccccc1` as listed: -0.75, -1.5
# `C/C(=N\OCc1nc2c3c4c(sc3ncn2n1)CCCC4)c1cccs1` as listed: 0.1, 0.23
# `Cc1cc(N2CCc3ccccc32)n2ncnc2n1` as listed: -0.6, -4.7*
# `O=C(Cn1nnc(-c2ccccc2)n1)OCc1ccccc1` as listed: -0.3, /

# (more compounds)
SMILES,AID504770,Ba CapD inh
CCCNC(=O)c1noc2c1CCc1cc(OC)ccc1-2,-0.4,-0.045
CC(Sc1nnc(-c2cccs2)n1-c1ccccc1)C(=O)NC1(C#N)CCCCC1 (configuration not stated),0.35,/
O=C(C1CCC1)N1CCc2cc(S(=O)(=O)NCCCN3CCN(Cc4ccccc4)CC3)ccc21,-0.65,0.12
O=C(NCc1ccc2c(c1)OCO2)c1ccc(S(=O)(=O)N2CCCC2)cc1,-0.5,/
Clc1ccc(C2Nc3ccc(Cl)cc3C(c3ccccc3)O2)cc1 (configuration not stated),/,-0.085
Cc1ccccc1C(=O)Nc1scc(CC(C)C)c1C(=O)O,-0.05,-0.37
CC(C)CNS(=O)(=O)c1ccccc1,0.1,/
COc1cccc(NC(=O)C(NCCO)c2ccccc2)c1 (configuration not stated),1.2,/
CC1(CC(=O)N/N=C/c2ccc(C#N)cc2)OCCO1,1.7,-0.56
COc1cc(Br)c(C2C(C(=O)OCCc3ccccc3)=C(C)NC3=C2C(=O)CCC3)cc1OC (configuration not stated),/,25
O=C1C2C(c3ccccc3)OC3(C(=O)c4ccccc4C3=O)C2C(=O)N1CCc1ccc(F)cc1 (configuration not stated),/,-0.37
CC1CCCCN1CCNC(=O)CN1C(=O)CCSc2ccccc21 (configuration not stated),0.7,0.28
CC(C)(C)c1ccc(C(=O)COc2ccc(-c3nnco3)cc2)cc1,1.4,/
Brc1ccc2nc3c(n2c1)CCCC3,-0.95,-0.38
O=C(C1=COCCO1)N1CCN(c2nc3ccccc3s2)CC1,0.6,0.27
Cc1ccn(CC(C)C(=O)O)n1 (configuration not stated),-0.35,/
O=C(ON(Cc1c(F)cccc1Cl)Cc1c(F)cccc1Cl)c1cccs1,-0.9,-0.37
CCCCC(=O)Nc1nc(-c2ccccc2)cs1,0.75,0.065
CN(C)N1C(N)=C(C#N)C(c2ccccc2)C2=C1CCCC2=O (configuration not stated),-0.25,-0.45
O=C(NCCc1cn2ccccc2n1)c1ccccc1F,-0.8,/
S=C1NCN(Cc2ccccc2)CN1Cc1ccccc1,-0.35,17
CCCCN(C)C(=O)CSc1nc(NCc2ccc3c(c2)OCO3)c2ccccc2n1,/,-0.16
CC1=CCC2C(=O)N(c3ccc(C(=O)N4CCCCCC4)cc3)C(=O)C2C1 (configuration not stated),0,0.52
O=C(O)C1CCN(c2c(-c3ccccc3)c3cc(Cl)ccc3[nH]c2=O)CC1,-0.6,0.04
CC1CCN(CC(=O)Nc2sc3c(c2C#N)CCCC3)CC1,-0.05,/
OCCN1CCN(C(=S)c2ccccc2O)CC1,-0.95,-0.39
CSc1nc2ccc(NC(=O)/C=C/c3ccc(C)o3)cc2s1,-1.1,/
CC(C(=O)O)C1SC(=O)NC1=O (configuration not stated),-1.4,-0.12
CCCCCSc1nnc2c(n1)OC(CC)N(C(C)=O)c1ccccc1-2 (configuration not stated),0,0.45
O=C(CSc1ccc2c(c1)CCC2)N(Cc1nnc(-c2ccc(Cl)cc2)o1)C1CC1,0,/
O=C(c1sc2ccccc2c1Cl)n1ccc(-c2cccs2)n1,-0.3,1.5
CS(=O)(=O)c1ccc(-c2noc(C3CCN(C(=O)c4c(F)cccc4F)CC3)n2)cc1,/,0.11
O=C1c2ccccc2C(=O)N1CCCCN(C(=O)c1sc2ccccc2c1Cl)c1ccc(F)cc1F,/,0.01
O=C1CN(C(=O)C2CCC2)CCN1,-1.1,/
Cc1ccc2nc(C)cc(Nc3ccccc3)c2c1,-0.25,-0.62
CN(C(=O)c1ccccc1)c1nc2ccccc2s1,1.6,-0.14
C=CCn1c(SCC(=O)c2[nH]c(C)c(C(=O)OC)c2C)nc2sc3c(c2c1=O)CCC3,/,-0.55
Cc1nc2ccccc2c(C)c1CC(=O)O,2.1,0.76
COc1ccc(C(C#N)N2CCCCC2)cc1OC (configuration not stated),-0.8,-0.12
O=C(c1ccc(N2CC3CC(C2)c2cccc(=O)n2C3)c(NS(=O)(=O)c2ccc(Cl)cc2)c1)N1CCCCC1 (configuration not stated),/,-0.32
CC1=Nc2ccccc2/C1=C/c1sc(=O)n(-c2ccccc2)c1O,0.05,-0.62
O=C(Nc1ccc2c(c1)OCCO2)c1ccno1,-0.2,-0.08
CS(=O)(=O)c1ccccc1C(=O)Nc1cc2c(cc1C(=O)O)OCCO2,-0.05,/
O=C(NCC12CC3CC(C1)CC(CNC(=O)C(F)(F)F)(C3)C2)C(F)(F)F,-0.75,-0.6
Cc1cc(C(=O)Nc2ccc3c(c2)OCCO3)nn1C(C)(C)C,-0.9,1.4
CN(c1nnc(N)s1)C1CCCCC1,-0.5,-0.1
Cn1c(N)c(Br)c(-c2ccc(F)cc2)c(C#N)c1=O,-0.25,/
CC1(C)CC2=NN(c3ccccc3)P(=O)(OCC3CCCO3)C2=C(N2CCCCC2)C1 (configuration not stated),0.15,/
CCOc1ccccc1C(=O)Nc1cccc(C)c1,0.15,-0.26
COc1ccc(Nc2cnnc3c(Cl)cccc23)cc1OC,-0.85,-2.6
# More records follow.
SMILES,AID504770,Ba CapD inh
Cc1ccc(C(=O)OCC(=O)N2CCCC2)cc1NC(=O)c1ccco1,0.85,/
COc1ccc(S(=O)(=O)NC2(C(=O)O)CCCCC2)cc1,1.1,-0.085
CC/C(C)=N/N1C(=O)c2ccccc2NC1(C)CC (configuration not stated),0.15,78
CC(Sc1nnc(N)s1)C(=O)Nc1ccc(F)c(F)c1F (configuration not stated),-0.2,/
Cc1onc(-c2c(Cl)cccc2Cl)c1C(=O)Nc1cccc(C#N)c1,/,-0.035
Cc1csc(NC(=O)c2cc[n+]([O-])cc2)n1,-0.8,-1.6
CN[C@@H]1[C@H](O[C@H]2[C@H](O[C@@H]3[C@@H](O)[C@H](O)[C@@H](N=C(N)N)[C@H](O)[C@H]3N=C(N)N)O[C@@H](C)[C@]2(O)C=O)O[C@@H](CO)[C@H](O)[C@H]1O,/,1
COc1ccc2c(c1)C(=O)N(CCc1ccc(S(=O)(=O)NC(=O)NC3CCCCC3)cc1)C(=O)C2(C)C,/,0.13
NC(=O)N1c2ccccc2C=Cc2ccccc21,0.1,0.27&-0.38&-0.47
O=C(Nc1nccs1)c1cccc(S(=O)(=O)N2CCCCC2)c1,0.15,4.1
COc1ccc2c(c1)CCc1sc(/N=C/NO)nc1-2,/,0.14
O=C(NCCNc1ccc([N+](=O)[O-])cn1)NNC(=O)c1ccc([N+](=O)[O-])o1,/,-5.1*
COc1ccc(C2=NN3COc4ccccc4C3C2)cc1 (configuration not stated),-0.25,-0.57
O=C(NCCN1CCCCCC1)c1ccc(N2CCCC2=O)cc1,1.5,-0.27
Cc1ccc2nc(SCCC3OCCO3)nc(=O)n2c1,-0.5,/
CSc1ccc(/C=N/N(C)S(=O)(=O)c2ccc(C)cc2)cc1,1.1,58
C/C(=C\c1ccccc1)c1ccc2c(c1)CCN2C,-0.2,-0.71
O=C(Nc1cc(-c2ccccc2)[nH]n1)c1ccc(Cl)cc1,/,-0.48
CC(C)C(=O)Nc1c2c(nn1-c1ccc(Oc3ccccc3)cc1)CSC2,-0.3,-0.04
COc1cccc(-c2nc3sc4c(c3c(=O)n2CC(=O)Nc2ccc(N(C)C)cc2)CCCC4)c1,/,0.59

# Part of the list above in order of formula weight, rising:
SMILES,AID504770,Ba CapD inh
O=C(Cn1nnc(-c2ccccc2)n1)OCc1ccccc1,-0.3,/
Cn1c(N)c(Br)c(-c2ccc(F)cc2)c(C#N)c1=O,-0.25,/
O=C(C1=COCCO1)N1CCN(c2nc3ccccc3s2)CC1,0.6,0.27
O=c1[nH]nc(SCc2cccc3nsnc23)n1-c1ccccc1,-0.75,-1.5
Cc1ccc(C(=O)OCC(=O)N2CCCC2)cc1NC(=O)c1ccco1,0.85,/
CC1CCCCN1CCNC(=O)CN1C(=O)CCSc2ccccc21 (configuration not stated),0.7,0.28
CN[C@@H]1[C@H](O[C@H]2[C@H](O[C@@H]3[C@@H](O)[C@H](O)[C@@H](N=C(N)N)[C@H](O)[C@H]3N=C(N)N)O[C@@H](C)[C@]2(O)C=O)O[C@@H](CO)[C@H](O)[C@H]1O,/,1

# The list continues.
SMILES,AID504770,Ba CapD inh
NC(=O)C1CCN(C(=O)C2C3CCC(C3)C2C(=O)O)CC1 (configuration not stated),-0.3,-0.52
CNC(=O)c1c(O)c2ccccc2n(C)c1=O,-0.45,10
Cc1[nH]c2ccc(F)cc2c1CC(=O)O,-0.1,/
COc1ccc(NC(=O)CSc2nc3ccccc3c(=O)n2CCC(=O)NCc2ccc(F)cc2)c(OC)c1,/,-0.52
C/C(CCc1ccc2c(c1)OCO2)=N\N=C(/N)SC1CC(=O)N(c2ccccc2)C1=O (configuration not stated),-0.45,-0.27
COc1ccc(CNC(=O)c2ccc(CS(=O)c3ccc(OC)cc3)o2)cc1 (configuration not stated),-0.3,0.035
COc1ccccc1NC(=O)CN(Cc1ccco1)C(=O)Cc1ccc(Cl)cc1,-0.35,/
CN1C/C(=C\c2ccccc2)C(=O)/C(=C/c2ccccc2)C1,-0.05,-2.8&-0.99
O=C(COc1ccccc1Cl)N1CCOCC1,-0.6,-0.38
CC1CCCC(NC(=O)c2ccc3c(c2)[nH]c(=S)n2c4ccccc4nc32)C1C (configuration not stated),/,-0.41
CCCCCCOc1ccc(C2C(C#N)=C(C)NC(C)=C2C#N)cc1,0,/
CCC(=O)N(c1nnc(SC(C)c2nc3ccccc3c(=O)[nH]2)s1)C1CC1 (configuration not stated),0.95,/
O=C(NC1CCN(Cc2ccccc2)C1)OCc1ccccc1OC(F)(F)F (configuration not stated),/,0.38
Clc1ccc(Cc2nc(-c3ccccc3)cs2)cc1,/,0.27
N#Cc1cnn(C(N)=S)c1N,-2,2.3
COc1ccccc1-c1coc2c(CN(C)C)c(O)ccc2c1=O,-0.6,/
COc1ccc(C2=NC(c3ccncc3)=Nc3ccc(C(C)C)cc3N2)cc1OC,0.35,-2.1
CC1CC(C)CN(c2ccc(N)cc2C(=O)O)C1 (configuration not stated),/,0.52
Cc1cc(C)c(C(N)=O)c(SCC(=O)c2ccc(Cl)cc2)n1,0.4,0.05
Nc1ccc(C23CC4CC(CC(C4)C2)C3)cc1,0.95,-0.22
O=C(NCCCN1CCOCC1)/C(=C/c1cccs1)NC(=O)c1ccccc1,/,-0.27
N/C(=N\S(=O)(=O)c1ccccc1)c1ccccc1,-0.25,/
CSc1nc(N/C=C(\C#N)S(=O)(=O)c2ccccc2Cl)nc(N(C)C)n1,-0.25,0.21
CN1CCN(S(=O)(=O)c2ccc(NC(=O)C(C)(C)C)cc2)CC1,1.9,0.18
O=C(NCc1nc(-c2ccccc2)no1)c1ccccc1,0.1,-0.67
O=C(CSc1nc2ccccc2n1Cc1ccccc1)Nc1ccccn1,-0.6,/
O=C1CN(C(=O)C2CCCC2)C(c2ccc(F)cc2)c2cc(F)ccc2N1 (configuration not stated),-0.3,-0.79
Cc1cccc(N2CCN(Cc3c(O)ccc4ccccc34)CC2C)c1 (configuration not stated),1.6,/
CC1(c2ccc3c(c2)OCCO3)NC(=O)N(CC#N)C1=O (configuration not stated),-0.3,/
CCCC(=O)NC(=S)Nc1cccc(-c2nc3cc(C)cc(C)c3o2)c1C,-0.2,1.1
O=C(NC1(c2ccccc2)CC1)N1CCN(c2ccccc2)CC1,0.85,0.54
c1nc2n(n1)C1(CCCCC1)C1=C(CCCC1)N2,/,-0.33
CN(C)C(=O)c1ccc(I)cc1,-1.4,0.035
COCCn1c(=NC(=O)CSCC(=O)N2CCCc3ccccc32)sc2cc(OC)ccc21,-0.95,41
O=C(O)c1cccnc1SC1CC(=O)N(c2ccccc2)C1=O (configuration not stated),/,-0.27
CCC(C)N=C1NC=NC2SC(C3COc4ccccc4O3)=CC12 (configuration not stated),-0.45,-0.45
CN(C(=O)c1ccc(-n2cnnn2)cc1)C1CC(C)(C)NC(C)(C)C1,1.2,-0.05
CS(=O)(=O)c1ccc2sc(N)nc2c1,-1.1,/
COc1ccc(/C=C2\SC(=S)N(CCC(=O)Nc3cc(Cl)ccc3O)C2=O)cc1OC,/,-0.58
N#CC1Cn2c(nc3c(c2=O)C2(CCCC2)Cc2ccccc2-3)S1 (configuration not stated),/,0.54
CCCCN(C)C(=O)C1c2ccccc2C(=O)N(Cc2ccc(F)cc2)C1c1ccc(OC)cc1 (configuration not stated),/,0.46

# Rows were taken by chance (roughly 0.37% active in at least one column).
